# INS promoter inh: TRM-6 insulin promoter activity inhibition; hit rate 0.9% among 130,000; AID 1273; inhibition, % at 2 µM; TRM-6 cells (human fetal islet line), insulin promoter-eGFP reporter, imaging; reporter expression induced with tamoxifen;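 active = inhibition above the mean plus 3 SD, with well images judged a real hit on visual review, cut at about 60% in these data, passing the limit was not always enough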
# HSV replic up: HSV replication enhancement; HSV replication augmentation in cells, fold increase; maximum fold increase; hit rate 0.005% among 220,000;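 active = peak rise of 1.5-fold or more in the series; tested in PC3 cells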;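 note: first round at 10 µM; read as green reporter fluorescence; hits show the peak of a series up to 25 µM; 1 = signal of infected wells without compound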
# GALR2 agonist: GALR2 (human) receptor agonism. GALR2-expressing cells, agonist activation read-out. activation, %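 (tested at 5 µM)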. hit rate 0.48% among 140,000. AID 803;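 active = above mean plus 3 SD of all compounds, about 5% in these data, not always enough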;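 note: 0% = vehicle buffer wells and 100% = reference agonist at full effect; tested in CHO reporter cells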
# RGS16-Gao HTS: modulates binding between human RGS16 and Galphao; O15492+P09471; bead-based flow cytometry RGS16-Galphao binding, fluorescence; actives lie on both sides; binding response (% of control), % at 10 µM; hit rate 0.38% among 220,000;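 active = below 25% or above 175%, edge rows of some plates excepted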;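 note: Galphao activated by GDP with aluminum fluoride before binding; 100% = wells without compound and 0% = beads without RGS; some results beyond the cut were filed as inactive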
# PKD1 inh: blocks activity of human protein kinase D1; PKD1 kinase fluorescence polarization assay; inhibition, %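 (about 10 µM by stock and volumes)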; hit rate 0.056% among 200,000;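 active = inhibition of 50% or more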;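 note: controls were vehicle for no effect and a reference inhibitor for full effect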
# Target sequence (Q15139 whole entry, looked up): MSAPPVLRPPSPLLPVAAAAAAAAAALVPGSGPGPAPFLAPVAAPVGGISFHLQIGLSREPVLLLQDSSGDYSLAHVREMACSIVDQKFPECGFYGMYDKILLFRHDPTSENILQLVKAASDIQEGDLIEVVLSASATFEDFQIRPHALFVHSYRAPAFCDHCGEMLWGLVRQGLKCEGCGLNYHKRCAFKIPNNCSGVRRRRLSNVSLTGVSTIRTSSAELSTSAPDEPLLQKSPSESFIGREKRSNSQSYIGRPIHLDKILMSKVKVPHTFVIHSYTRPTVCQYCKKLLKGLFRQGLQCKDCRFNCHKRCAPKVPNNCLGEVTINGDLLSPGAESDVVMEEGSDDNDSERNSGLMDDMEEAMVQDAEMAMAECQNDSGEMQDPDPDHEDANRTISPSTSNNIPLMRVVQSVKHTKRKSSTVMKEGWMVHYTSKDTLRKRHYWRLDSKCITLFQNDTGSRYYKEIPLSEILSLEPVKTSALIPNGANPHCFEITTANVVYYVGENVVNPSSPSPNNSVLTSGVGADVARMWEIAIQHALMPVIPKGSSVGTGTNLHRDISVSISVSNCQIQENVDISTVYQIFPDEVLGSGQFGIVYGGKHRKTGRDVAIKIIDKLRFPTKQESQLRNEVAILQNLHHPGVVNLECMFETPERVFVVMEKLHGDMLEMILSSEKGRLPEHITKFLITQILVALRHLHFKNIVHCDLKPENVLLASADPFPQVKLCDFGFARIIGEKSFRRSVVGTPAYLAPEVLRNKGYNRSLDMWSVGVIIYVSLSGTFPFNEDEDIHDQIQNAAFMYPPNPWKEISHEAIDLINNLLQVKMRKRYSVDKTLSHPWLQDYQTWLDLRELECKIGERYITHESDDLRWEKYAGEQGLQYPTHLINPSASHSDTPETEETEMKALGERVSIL
# INS promoter inh cell count: recorded beside INS promoter inh, whose call it bears; normalized cell count, %; measured here: cell count, toxicity; reference of the scale not given here;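 cells exposed to compound for 48 h; stained nuclei by imaging scaled within each plate; lower means fewer cells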
# HSV replic up primary fold: also measured in HSV replic up; calls as there; fold increase; compound at 10 µM; measured here: primary screen fold increase 10 uM; tested in PC3 cells;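 GFP signal in the first replicate; 1 = infected wells without compound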
# Numbers without * were called inactive; i = inactive; x = no result given.
# Sequence of screens: INS promoter inh, INS promoter inh cell count, HSV replic up, HSV replic up primary fold, GALR2 agonist, RGS16-Gao HTS, PKD1 inh
- O=C(Nc1nc2ccccc2s1)c1ccc2c(c1)S(=O)(=O)c1ccccc1C2=O
 : x, x, i, 0.95, x, 87.8, 1.0
- CC(=O)c1cc(C#N)c(SCC(=O)O)nc1C
 : 8.6, 99.3, i, 1.02, -1.6, 102.5, -3.7
- CCc1ccc(OCC(=O)O/N=C(\N)Cc2ccc([N+](=O)[O-])cc2)cc1
 : 33.3, 105.0, i, 1.03, -1.9, 105.5, 1.3
- CCCCOc1ccc(-c2nnc(-c3ccncc3)o2)cc1
 : 5.3, 88.1, i, 0.97, -1.5, 84.7, -2.0
- CCc1nnc(NS(=O)(=O)c2ccc(NC(=S)NC(=O)c3ccc(F)cc3)cc2)s1
 : 33.3, 102.8, i, 1.07, -0.8, 177.4, -2.7
- CS(=O)(=O)N(CC(=O)NCCSCc1cccc(Cl)c1)c1ccc2c(c1)OCO2
 : -30.8, 96.2, i, 0.97, -1.1, 103.1, -1.4
- Cc1cc2c(N=NC(=O)CCc3ccccc3)c(O)[nH]c2cc1Br
 : -24.0, 45.3, i, 1.06, -0.3, 96.4, -8.5
- COc1ccc(S(=O)(=O)N(CC(=O)NCC2CCCO2)c2ccccc2)cc1OC (stereo not drawn)
 : -24.2, 90.1, i, 0.89, -3.4, 104.1, -12.1
- CCn1c(SCC(=O)N/N=C/c2ccc(C)o2)nnc1-c1ccccc1
 : -9.7, 76.7, i, 0.93, -2.4, 107.2, -12.9
- O=C(NCCCN=C1NS(=O)(=O)c2ccccc21)c1ccncc1
 : 21.7, 86.5, i, 0.81, -0.6, 107.6, -11.5
- Cc1cc(C2C(C#N)=C(N)SC(N)=C2C#N)c(C)s1
 : -184.6, 69.4, x, x, -0.4, 81.2, -0.3
- O=C1C2CCCCC2C(=O)N1c1cccc(OS(=O)(=O)c2ccccc2)c1 (stereo not drawn)
 : 25.9, 93.1, i, 1.2, -1.5, 102.0, -8.1
- CCNc1nc(SCC(=O)OC)nc(N2CCOCC2)n1
 : 3.7, 104.2, i, 0.93, 0.2, 97.9, -6.9
- Cn1c(SCC(=O)NC(=O)NCc2ccco2)nnc1C(F)(F)F
 : -22.9, 133.1, x, x, -1.6, 100.7, -7.6
- O=C(c1cc(-c2ccccn2)nc2c(Cl)cccc12)N1CCN(S(=O)(=O)c2ccccc2)CC1
 : 15.8, 153.6, i, 1, 2.3, 110.9, 0.8
- CC(Oc1ccccc1F)c1ccnc2nc(/N=C/N(C)C)nn12 (stereo not drawn)
 : 46.1, 104.4, i, 0.95, x, 99.8, 0.9
- O=C(C1CCCN1S(=O)(=O)c1ccc(Cl)c(Cl)c1)N1CCCCC1 (stereo not drawn)
 : -42.9, 139.9, i, 0.94, -4.1, 97.4, -1.6
- O=C(Nc1ccc(C(F)(F)F)cc1)C1(c2ccccc2)CC1
 : -15.6, 138.6, i, 1.01, -0.2, 102.2, -6.9
- Cn1c(N)c(C(=O)c2cc(-c3ccccc3)nc3ccccc23)c(=O)n(C)c1=O
 : 49.1, 70.3, i, 0.85, -4.4, 101.3, -3.5
- COc1cc(OC)cc(C(=O)N[C@H](C(=O)OCC(=O)NC(=O)NC(C)(C)C)C(C)C)c1
 : x, x, i, 0.82, x, 96.6, 0.6
- COC(=O)CCC(=O)Nc1ccccc1C(N)=O
 : x, x, i, 0.81, -1.5, 104.8, -18.8
- CCOC(=O)c1nn(-c2ccc(C)cc2)c2nc(Nc3ccccc3)cc(=O)n12
 : 21.1, 108.4, i, 0.94, 0.1, 98.2, -10.3
- Cc1cccc(CN2CCN(C(=O)c3ccccc3F)CC2)c1
 : 38.9, 132.5, i, 1.01, -0.7, 104.2, -0.2
- N/C(=N\OC(=O)C12CC3CC(CC(C3)C1)C2)c1cccnc1
 : x, x, i, 1, -2.9, 98.8, -13.9
- OCC1(CCc2ccccc2)CCN(Cc2cc(Cl)ccc2O)CC1
 : x, x, i, 0.83, x, 107.5, -10.3
- O=c1n(-c2ccccc2)c(=O)n2n1CC(O)C2
 : -33.3, 73.7, i, 1.03, x, 101.8, 2.4
- CCN1C(=O)/C(=C\N2CCN(c3ccc(F)cc3)CC2)SC1=S
 : -20.0, 82.4, i, 0.65, -2.9, 103.7, -15.0
- CC1CCN(CCCNC(=O)c2ccc(CSCc3cccc(Cl)c3)o2)CC1
 : -25.0, 91.3, i, 0.9, -2.7, 106.6, 4.1
- CC(C)C(=O)NNC(=O)CC(=O)Nc1ccccc1C(=O)O
 : x, x, i, 1.14, x, 98.3, x
- O/N=C(\c1ccc(Cl)cc1)c1ncc(C(F)(F)F)cc1Cl
 : 22.6, 56.9, i, 0.92, -1.2, 100.5, -3.9
- CSc1nnc(-c2ccccc2)o1
 : 25.0, 94.5, i, 0.89, -2.4, 103.0, -2.4
- O=C(NCc1cccnc1)c1ccc(-c2cccc(Cl)c2Cl)o1
 : x, x, i, 0.86, x, 91.4, -4.3
- Cc1nn(Cc2ccccc2)c(C)c1NC(=O)c1cc(-c2cccs2)on1
 : x, x, i, 0.93, -2.2, 112.2, -13.9
- CCN(CC)C(=O)c1c(C)[nH]c(=S)c(C#N)c1-c1ccco1
 : -26.7, 45.6, i, 1.07, x, 95.6, -7.2
- COc1ccc(NC(=O)c2noc3c2CCCCC3)cc1
 : x, x, i, 0.98, x, 97.9, -5.6
- Cc1cc(N2CCCCC2)n2nc(C)c(-c3ccccc3)c2n1
 : x, x, i, 0.8, 0.6, 98.4, -5.7
- c1ccc2c(c1)[nH]c1c(N3CCCC3)ncnc12
 : x, x, i, 0.93, -0.2, 121.3, 4.1
- Cc1ccc(NC(=O)O/N=C/c2c(C)nn(C(C)(C)C)c2C)cc1Cl
 : x, x, i, 0.91, x, 100.1, x
- N#CC(C#N)=C(Nc1ccc(F)cc1)SCc1cccc(F)c1
 : 37.5, 67.0, i, 0.85, -1.8, 122.5, -8.9
- CN1CCc2nc(SCCOc3ccccc3)c(C#N)cc2C1
 : 42.9, 108.9, i, 0.93, -2.8, 93.2, -6.4
- CC(C)Cn1nc(NC(=O)c2ccco2)c2cc3ccccc3nc21
 : x, x, i, 0.98, x, 95.3, x
- CS(=O)(=O)NCC(c1cccnc1)N1CCN(c2ccccc2F)CC1 (stereo not drawn)
 : x, x, i, 1.04, x, 103.3, x
- CCCc1cc(=O)oc2cc(OCC(=O)Nc3cc(C)on3)ccc12
 : -7.1, 118.2, i, 0.96, -3.7, 101.9, -4.0
- Cc1c(=O)n(OCc2c(F)cccc2F)c2ccccc2[n+]1[O-]
 : 16.0, 95.0, x, x, -2.4, x, -8.5
- O=C(O)/C=C/c1ccc(S(=O)(=O)NCc2cccnc2)cc1
 : x, x, i, 0.84, x, 94.8, x
- CC1CCN(Cc2cc(=O)oc3ccc4ccccc4c23)CC1
 : x, x, i, 1.03, x, 100.5, x
- COC(=O)c1ccc(CNC(=O)COC(=O)C23CC4CC(CC(C4)C2)C3)cc1
 : 46.7, 110.3, i, 0.96, -0.8, 101.5, 4.7
- O=c1[nH]nc(Sc2ncnc3sccc23)n1CCc1ccccc1
 : x, x, x, x, -3.5, 100.1, 1.7
- CC(C)C(=O)Nc1nnc(SCC(=O)NCC2CCCO2)s1 (stereo not drawn)
 : 11.8, 138.3, i, 1.03, x, 103.6, 2.4
- Cc1ccc(CN2CCN(/N=C/c3ccc(C)s3)CC2)cc1
 : -22.2, 172.7, i, 1.05, -0.3, 100.3, -5.1
- Cc1ccccc1-c1ccccc1N
 : x, x, i, 1.05, -0.9, 100.5, -1.0
- COC(=O)c1ccc(NC(=O)C2CCCN2S(=O)(=O)c2ccc(OC)cc2)cc1 (stereo not drawn)
 : -14.3, 119.6, i, 0.91, -0.8, 110.4, -8.7
- COc1cc(C2c3c(oc4ccccc4c3=O)C(=O)N2c2ccc(C)cn2)ccc1O (stereo not drawn)
 : x, x, i, 0.94, -0.3, 102.3, -10.9
- COc1cc(CNCCc2ccccc2)cc(Cl)c1OCc1ccccc1
 : -35.3, 128.3, i, 0.99, x, 105.0, -10.7
- CN(Cc1ccccc1)C(=O)COC(=O)C1CCN(S(=O)(=O)c2cccs2)CC1
 : x, x, i, 0.95, x, 101.4, -0.8
- CCc1cc2ccccc2nc1SCC(=O)N1CCN(C(=O)c2ccco2)CC1
 : 15.8, 107.3, i, 0.83, 0.2, 99.3, -10.9
- CC(C)CCN(CCC(C)C)C(CO)(CO)CO
 : x, x, i, 0.93, x, 98.0, -9.6
- C[C@@H](NC(=O)c1nc[nH]c1C(=O)N[C@@H](Cc1ccccc1)C(=O)OCc1ccccc1)c1ccccc1
 : x, x, i, 0.98, x, 108.5, -6.3
- CCOC(=O)c1cc2c(=O)n3cccc(C)c3nc2n(CCOC)c1=NC(C)=O
 : x, x, i, 1.07, x, 92.1, x
- Cc1c(C(=O)N2CCCCC2)nn(-c2ccc(Cl)cc2)c(=O)c1C#N
 : -70.6, 120.1, i, 0.89, x, 89.2, -1.2

# Sorted by length of the SMILES (largest number first): some entries from above.
# Sequence of screens: INS promoter inh, INS promoter inh cell count, HSV replic up, HSV replic up primary fold, GALR2 agonist, RGS16-Gao HTS, PKD1 inh
- Cn1c(N)c(C(=O)c2cc(-c3ccccc3)nc3ccccc23)c(=O)n(C)c1=O
 : 49.1, 70.3, i, 0.85, -4.4, 101.3, -3.5
- Cc1c(=O)n(OCc2c(F)cccc2F)c2ccccc2[n+]1[O-]
 : 16.0, 95.0, x, x, -2.4, x, -8.5
- O=c1n(-c2ccccc2)c(=O)n2n1CC(O)C2
 : -33.3, 73.7, i, 1.03, x, 101.8, 2.4

# The list goes on.
# Sequence of screens: INS promoter inh, INS promoter inh cell count, HSV replic up, HSV replic up primary fold, GALR2 agonist, RGS16-Gao HTS, PKD1 inh
- CCN1CCN(CC(O)COc2ccc(C(C)=O)cc2)CC1 (stereo not drawn)
 : x, x, i, 0.87, -2.1, 111.8, -0.1
- c1ccc(COc2cccc(CNCc3ccccn3)c2)cc1
 : x, x, i, 1.02, x, 108.0, 7.5
- COc1ccc(-c2cnnc(N/N=C/c3ccc(O)cc3)n2)cc1
 : 50.0, 142.6, i, 0.76, x, 99.3, 4.3
- CC(=O)Nc1ccc(S(=O)(=O)NNC(=O)c2ccc(C)cc2)cc1
 : 47.8, 83.7, i, 0.88, -0.1, 89.3, -2.8
- CC(C)(C)OC(=O)NCCCCCC(=O)N/N=C/c1coc2ccccc2c1=O
 : x, x, i, 1.08, x, 98.1, x
- CNC(=O)C(=O)Nc1c(C)cc(C)cc1C
 : -53.3, 114.8, i, 1.03, -0.4, 101.3, 1.6
- Cc1cc2sc3nc(=O)n(-c4ccccc4)c(=O)n3c2cc1C
 : x, x, i, 0.89, x, 108.0, x
- c1csc(-c2csc3nc(CN4CCOCC4)nc(NCc4ccc5c(c4)OCO5)c23)c1
 : 28.6, 80.2, i, 0.95, -1.2, 104.5, -12.2
- CCc1cc2cc(C)c(C)cc2nc1SCC(=O)NNC(=O)c1ccco1
 : 33.3, 60.2, i, 0.88, -2.0, 88.2, -5.5
- Cc1nn(Cc2ccccc2Cl)c(C)c1NC(=O)Cn1nc([N+](=O)[O-])c(Cl)c1C
 : -16.7, 106.3, i, 0.92, -3.0, 105.1, -2.6
- CC(C)C(NC(=O)c1ccccc1F)C(=O)NCCc1ccccn1 (stereo not drawn)
 : -100.0, 56.2, i, 0.96, x, 99.8, 4.3
- CCOC(=O)c1ccccc1OC(=O)CS(=O)c1ccccc1[N+](=O)[O-] (stereo not drawn)
 : x, x, i, 0.98, x, 99.9, -5.6

# Structures listed so far with a furan ring, fused or not (eight):
# Sequence of screens: INS promoter inh, INS promoter inh cell count, HSV replic up, HSV replic up primary fold, GALR2 agonist, RGS16-Gao HTS, PKD1 inh
- CCn1c(SCC(=O)N/N=C/c2ccc(C)o2)nnc1-c1ccccc1
 : -9.7, 76.7, i, 0.93, -2.4, 107.2, -12.9
- Cn1c(SCC(=O)NC(=O)NCc2ccco2)nnc1C(F)(F)F
 : -22.9, 133.1, x, x, -1.6, 100.7, -7.6
- CC1CCN(CCCNC(=O)c2ccc(CSCc3cccc(Cl)c3)o2)CC1
 : -25.0, 91.3, i, 0.9, -2.7, 106.6, 4.1
- O=C(NCc1cccnc1)c1ccc(-c2cccc(Cl)c2Cl)o1
 : x, x, i, 0.86, x, 91.4, -4.3
- CCN(CC)C(=O)c1c(C)[nH]c(=S)c(C#N)c1-c1ccco1
 : -26.7, 45.6, i, 1.07, x, 95.6, -7.2
- CC(C)Cn1nc(NC(=O)c2ccco2)c2cc3ccccc3nc21
 : x, x, i, 0.98, x, 95.3, x
- CCc1cc2ccccc2nc1SCC(=O)N1CCN(C(=O)c2ccco2)CC1
 : 15.8, 107.3, i, 0.83, 0.2, 99.3, -10.9
- CCc1cc2cc(C)c(C)cc2nc1SCC(=O)NNC(=O)c1ccco1
 : 33.3, 60.2, i, 0.88, -2.0, 88.2, -5.5

# Screens: PubChem BioAssay, several laboratories
